Assay outcomes as filed in PubChem BioAssay.
D2 ag = Beta-Arrestin HTS for Positive Allosteric Modulators of the Human D2 Dopamine Receptor: Agonists; D(2) dopamine receptor (Homo sapiens), P14416; activation, % (test concentration not listed); 360,000 compounds, 0.084% hits; AID 624465, 2012; DiscoveRx PathHunter D2 beta-arrestin, luminescence, 90 min; 100% = 57 uM dopamine signal; in the data active = activation above about 40%; inconclusive = about 15% to 40%; inactive = below about 15%; further: compound concentration not given in the record; the text of the record calls up to 30% inactive
Target sequence (P14416 whole entry, looked up): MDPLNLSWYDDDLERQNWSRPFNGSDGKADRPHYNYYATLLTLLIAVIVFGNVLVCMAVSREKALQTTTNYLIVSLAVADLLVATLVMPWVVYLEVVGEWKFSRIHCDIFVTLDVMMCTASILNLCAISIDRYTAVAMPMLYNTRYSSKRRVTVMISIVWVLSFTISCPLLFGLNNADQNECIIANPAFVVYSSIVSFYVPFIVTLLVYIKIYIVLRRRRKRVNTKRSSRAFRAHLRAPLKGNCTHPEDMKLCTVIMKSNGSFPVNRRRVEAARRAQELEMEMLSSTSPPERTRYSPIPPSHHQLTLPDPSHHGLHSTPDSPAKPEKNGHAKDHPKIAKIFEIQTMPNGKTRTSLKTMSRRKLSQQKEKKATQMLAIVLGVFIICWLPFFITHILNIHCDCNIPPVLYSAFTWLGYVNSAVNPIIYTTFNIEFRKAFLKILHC
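Agonist mode: compounds alone added to overnight-plated D2 PathHunter cells for 90 min at 37 C, with 57 uM final dopamine (EC100) defining full response. Beta-arrestin recruitment detected by chemiluminescent reagent, read after 1 h at ambient temperature.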
CtBP-E1A blk = qHTS Assay for Inhibitors of the CtBP/E1A Interaction. AlphaScreen GST-E1A/His-CtBP binding, 1536-well; stronger effect = lower value; control for the full effect not named in the record. activity change, % (test concentration not listed). 340,000 compounds, 0.49% hits. AID 651724, 2012; in the data active means activity change below about -65%; inconclusive means about -30% to -65%; inactive means above about -30%; further: on the % scale 0 is the no-effect control and ±100 the full control effect
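In 5 uL wells, 23 nL compound meets equimolar GST-E1A and His-CtBP (5X stock 125 nM each) for 2 h, 37 °C. Beads (5X, 50 ug/mL) then 1 h, 37 °C, dark.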
D2 PAM = Beta-Arrestin HTS for Positive Allosteric Modulators of the Human D2 Dopamine Receptor: Potentiators; DiscoveRx D2 beta-arrestin cells, luminescence, 90 min; 100% = 57 uM dopamine signal; 360,000 compounds, 0.23% hits; potentiation, % (no concentration beside the values); active = potentiation of 50% or more; inconclusive = 30% to 50%; inactive = 30% or less;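 further: compound concentration not given in the record; tested on top of an EC20 dose of dopamine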
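PathHunter D2 cells, attached overnight at 37 deg C, received compound in DMSO plus dopamine at EC20 (50 nM final) for 90 min at 37 deg C. Beta-arrestin recruitment was read as luminescence after 1 h with detection reagent at ambient temperature.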
PINK1 expr mod = A Quantitative High throughput Screen to Identify Chemical Modulators of PINK1 Expression. PINK1 immunofluorescence, high-content cytometry, 24 h. Potency, µM (top dose mostly 76.6 µM), without a hit: top-dose activation (PINK1 increase), usual class: activators. 410,000 compounds, 0.2% hits; active = well fitted activation curve with a large enough effect; inconclusive = small, poorly fitted or top-dose-only effect; inactive = flat fitted curve, though single readings scatter; cell line not stated here;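 further: potency means the concentration at half of the fitted maximal effect; % of control where 0% means no effect; nearly all actives have a fitted effect of over 65% in size; a mitochondrial uncoupler was the plate control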
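A stable cell line was treated with compounds at 5 concentrations for 24 hours, with CCCP as control. PINK1 levels and mitochondrial localization were measured by immunofluorescence with mitochondrial, cell and nuclear markers after fixation, read by laser-scanning cytometry.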
TRPML1 agonist = qHTS for Agonists of the Human Mucolipin Transient Receptor Potential 1 (TRPML1). Mucolipin-1 (Homo sapiens), Q9GZU1. TRPML1-expressing cells, Ca2+ dye fluorescence, FDSS; host cell line not named in the record; reference of the full effect not given here. activation, % (no concentration beside the values). 410,000 compounds, 0.12% hits; in the data active = activation above about 50%; inconclusive = about 30% to 50%; inactive = below about 30%; further: 0% is about no effect; the text of the record puts the active cut at 80%
Target sequence (Q9GZU1 whole entry, looked up): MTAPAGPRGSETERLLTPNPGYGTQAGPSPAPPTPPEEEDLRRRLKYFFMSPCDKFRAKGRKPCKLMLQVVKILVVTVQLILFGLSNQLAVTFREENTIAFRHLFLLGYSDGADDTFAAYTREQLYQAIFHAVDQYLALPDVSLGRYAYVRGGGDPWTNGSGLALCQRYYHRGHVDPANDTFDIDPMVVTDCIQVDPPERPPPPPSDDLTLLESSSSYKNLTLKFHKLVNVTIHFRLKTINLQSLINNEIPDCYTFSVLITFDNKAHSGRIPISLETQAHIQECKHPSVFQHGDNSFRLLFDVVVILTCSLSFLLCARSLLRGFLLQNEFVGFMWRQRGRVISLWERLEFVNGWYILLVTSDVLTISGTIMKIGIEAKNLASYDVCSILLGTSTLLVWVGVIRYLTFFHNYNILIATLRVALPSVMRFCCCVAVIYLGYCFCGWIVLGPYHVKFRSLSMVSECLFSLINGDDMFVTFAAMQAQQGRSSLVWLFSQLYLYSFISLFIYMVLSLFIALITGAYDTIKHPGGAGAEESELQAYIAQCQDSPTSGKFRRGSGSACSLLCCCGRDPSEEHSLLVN
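Tetracycline-induced TRPML1-DL cells are seeded and incubated overnight before loading with a no-wash Ca2+ dye and quencher. Agonist activity is taken from the 110 s fluorescence read following compound pin-transfer on an FDSS, before EC80 54-4 challenge.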
Six1-Eya2 blk = qHTS Assay for Inhibitors of the Six1/Eya2 Interaction; AID 651725, 2012; activity change, % (no concentration beside the values); Homeobox protein SIX1 (Homo sapiens) + Protein phosphatase EYA2 (Homo sapiens), …; AlphaScreen GST-Six1/His-Eya2 binding, biochemical; stronger effect = lower value; control for the full effect not named in the record; 360,000 compounds, 0.56% hits; in the data active = activity change below about -65%; inconclusive = about -30% to -65%; inactive = above about -30%; further: on the % scale 0 is the no-effect control and ±100 the full control effect
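GST-Six1 + His-Eya2 (5X stock: 250/500 nM); Tris pH 8.0, 300 mM NaCl, 0.05% BSA, 0.02% Tween 20; GSH donor/Ni acceptor beads; 1 h 37 °C dark; AlphaScreen readout.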
The depositor's hits bear a star; ? = inconclusive; . = not tested or not shown; & = joins results of further samples; [ ] = remark or other dose. Rows were taken by chance; any-hit rate near 1.3%.

SMILES	D2 ag	CtBP-E1A blk	D2 PAM	PINK1 expr mod	TRPML1 agonist	Six1-Eya2 blk
CCCn1c(-c2ccc(OC)cc2)nc2nc3ccccc3nc21	-2.3	44	-7	?	2.1	19
CCn1c(=O)c(C(=O)Nc2ccccc2F)c(O)c2ccccc21	-7.5	-2	-5	2.1%	0.3	13
COc1ccccc1N=Cc1c(C)c(C#N)c2[nH]c3ccccc3n2c1=O	-2.5	-12	1	7.6%	0.4	-18
OCC[C@@H]1C[C@H](O)[C@@H](O)[C@]2(OCCc3ccccc32)O1	-0.4	10	-6	0.2%	0.1	-83*
COc1ccc2c(c1)CC(C1(O)C(=O)Nc3ccccc31)C2=O (stereo unspecified)	-2.2	-1	2	-1.2%	0.0	3
Cc1nc(CSc2nnc(N)s2)cs1	-7.1	-6	4	1.3%	-0.2	14
COc1ccc(-c2csc(NC(=O)c3cc(-c4cccs4)nc4ccccc34)n2)c(OC)c1	-0.1	-5	1	-0.1%	-0.2	8
N#Cc1cnc(Nc2nc3ccccc3o2)nc1-c1ccccc1	-3.3	-11	-16	-0.4%	0.1	-2
COc1ccc(Nc2nnc(SCC(=O)NC(=O)Nc3ccc4c(c3)OCCO4)s2)cc1	-3.0	-5	-7	0.6%	-0.6	1
COc1ccc(S(=O)(=O)N(C)C[C@@H]2Oc3ccc(NS(=O)(=O)c4cn(C)cn4)cc3C(=O)N([C@@H](C)CO)C[C@@H]2C)cc1	-2.0	5	-5	0.7%	-0.7	5
CCOCCn1c(N2CCN(c3ccccc3)CC2)nc2c1c(=O)[nH]c(=O)n2C	-1.7	-3	1	0.2%	1.6	7
Cc1cccc(C(=O)N/N=C/c2cc(Br)c(Br)o2)c1	2.7	-12	-21	8.0%	1.6	-24
COc1ccc(-n2nnnc2-c2cnc3cc4c(cc3c2C)OCO4)cc1	0.8	5	-7	-2.6%	-0.6	0
NC12NC(=O)C3(O)C4C5CC(C6C5C3C61)C42 (stereo unspecified)	-6.0	0	4	-0.2%	0.2	-3
CCOc1ccccc1CN1CCNC(=O)C1CC(=O)NC1CCCCCCC1 (stereo unspecified)	-4.2	3	-5	2.9%	-0.4	0
COC(=O)CSC(C(=O)Nc1ccc(C)c(C)c1)c1ccccc1 (stereo unspecified)	-2.3	-2	-4	-1.7%	-0.9	0
O=C(N/C(=C\c1ccc(Br)cc1)C(=O)N1CCCC1)c1cccs1	4.8	-17	-20	0.1%	0.0	-1
Brc1ccc(-c2nn3c(Cc4ccccc4)nnc3s2)o1	2.0	-2	6	-0.7%	0.7	-1
CC(=O)c1c(COC(=O)c2cccnc2)nc2ccccc2[n+]1[O-]	2.4	6	21	-1.5%	0.4	5
O=C(Nc1ccccn1)NC12CC3CC(CC(C3)C1)C2	-3.7	6	-13	16%	0.9	?
C=C(C)C(=O)N1CC2(CC(c3cccc(NC(=O)COc4ccc(Cl)cc4)c3)=NO2)C[C@@H]1C(N)=O (stereo partly specified)	-0.4	0	-2	2.2%	-0.6	1
O=C(Nc1ccc(N2CCOCC2)cc1)C1CCCCN1S(=O)(=O)c1ccccc1 (stereo unspecified)	-0.8	.	-13	-0.3%	-1.0	-6
CCOc1ccc(C(=O)Cc2cc3cccc(OC)c3oc2=O)cc1	-3.1	12	1	2.1%	1.3	-7
COc1cccc(/C=C(/C#N)c2ccc(Cl)cc2)c1OCc1cccc(C(=O)O)c1	-1.6	4	-9	-2.0%	-0.3	-11
C=CCn1c(SCC(=O)CC(=O)OCC)nc2cc(C(=O)N3CCC(C(N)=O)CC3)ccc2c1=O	-7.6	1	-4	0.3%	-1.0	-5

New compounds follow:
SMILES	D2 ag	CtBP-E1A blk	D2 PAM	PINK1 expr mod	TRPML1 agonist	Six1-Eya2 blk
COc1ccc(COC(=O)Nc2c(SC)nsc2SC)cc1	1.4	6	-3	6.2%	1.1	5
CC(=O)Nc1ccc(Nc2ccccc2)cc1	3.9	4	0	-1.0%	0.3	-2
COc1ccccc1C1CC(c2ccc(Cl)cc2)Nc2ncnn21 (stereo unspecified)	-2.2	-3	-10	2.7%	2.1	-5
CCCCN(C(=O)c1c(CC)noc1C)c1c(N)n(CCC)c(=O)[nH]c1=O	-5.5	4	-16	3.8%	-1.3	5
C=CCNC(=O)C1CC2Cn3c(nc4cc5ccccc5cc43)C2N1C (stereo unspecified)	-3.4	5	-3	-0.1%	0.8	8
CCc1cc2cc3c(cc2nc1SCC(=O)Nc1nccs1)OCO3	1.5	8	4	?	0.0	6
Cc1ccc(C)c(CN2CCC(CNC(=O)Nc3cccc(Cl)c3C)CC2)c1	-6.3	2	-6	-0.4%	0.4	-6
CCOCCCNC(=O)C(c1ccc(C)cc1)N(Cc1ccc2c(c1)OCO2)C(=O)c1cnccn1 (stereo unspecified)	-2.8	4	-18	-0.6%	-0.7	3
COC(=O)CSC1=C(C#N)C(=O)NC(c2ccccc2)S1 (stereo unspecified)	-2.2	-8	-5	8.7%	2.1	0
CCOC(=O)C[C@H]1c2ccc(C(F)(F)F)cc2S(=O)(=O)N1C(C)(C)C	-2.5	0	-8	-0.4%	0.1&-0.8	2
CC1CCCC(C)N1C(=O)COC(=O)CNC(=O)c1ccccc1 (stereo unspecified)	-3.4	20	-9	1.4%	0.0	0
COc1ccc(S(=O)(=O)NCc2ccccn2)cc1Cl	-4.6	4	6	0.8%	0.7	-1
COC(=O)c1ccccc1NC(=O)c1ccnn1C	-3.3	2	2	3.3%	-0.4	2
CCCCCC[n+]1c(-c2ccc(Cl)cc2Cl)csc1Nc1ccccc1	-2.5	0	-25	10%	0.9	-3
Brc1ccc2nc(-c3ccco3)c(Cc3ccccc3)n2c1	-6.5	-2	-7	11%	0.0	-15
COCCN1CCN(C(=O)C2CCC(=O)N(Cc3ccc(Cl)cc3)C2)CC1 (stereo unspecified)	-1.5	2	-9	-1.3%	-0.2	4
CN(C)CCN(Cc1ccccc1)c1ccccn1	-6.1	0	-21	3.0%&0.3%	-0.6	20
Nc1ccc(-c2nnn(Cc3ccccc3F)n2)cc1	-2.4	0	-2	-1.2%	0.1	-16
CCOc1ccc(NS(=O)(=O)c2ccc(C(=O)N(C)CC(=O)Nc3ccc(C)cc3)cc2)cc1	-4.0	-3	-31	2.6%	2.6	-8
CC(O)CNc1nc2c(c(=O)n(C)c(=O)n2C)n1C/C=C/c1ccccc1 (stereo unspecified)	0.6	-1	-6	.	0.4	2
Cc1ccc(NC(=O)C2C3C=CC4(CN(Cc5cccnc5)C(=O)C24)O3)cc1 (stereo unspecified)	-7.0	5	-4	0.2%	0.5	6
Cc1ccc(/C=N/NC(=O)CCn2nc(C)cc2C)c(C)c1	-3.3	-4	-6	0.8%	0.9	14
Cc1nc(SCC(=O)N2c3ccccc3NC(=O)CC2C)c2c(C)c(C)sc2n1 (stereo unspecified)	-3.8	-9	-5	1.1%	0.4	-3
CCCCOC(=O)Cn1c(=N)n(CCC)c2ccccc21	-1.6	-3	-15	-0.3%	0.0	-9
Cc1onc(-c2ccccc2)c1C(=O)OCC(=O)Nc1ccc2c(c1)OCO2	-0.2	-10	-1	-3.8%[38.3 µM]	0.2	-6

Carrying on.
SMILES	D2 ag	CtBP-E1A blk	D2 PAM	PINK1 expr mod	TRPML1 agonist	Six1-Eya2 blk
Cc1c(C(=O)Nc2cccnc2)oc2ccc(Br)cc12	2.3	-6	-9	-0.9%	0.8	1
CCc1ccc(CN(C)Cc2nc(-c3cccc(Cl)c3)no2)nc1	-2.9	6	-2	9.7%	1.2	8
Cc1ccc(C2(C)NC(=O)N(CC(=O)Nc3ccc(S(=O)(=O)Nc4nccs4)cc3)C2=O)cc1 (stereo unspecified)	2.7	0	4	?	0.1	-12
CC(=O)NC(Cc1ccc(F)cc1)C(=O)NC1CCN(c2nnnn2-c2ccccc2)CC1 (stereo unspecified)	-2.0	1	-22	0.1%	0.9	20
CNC(=S)N=Nc1c(O)[nH]c2ccccc12	-1.7	-69*	-7	1.7%	0.4	-70*
CS(=O)(=O)c1ccc2nc(NC(=O)C3COc4ccccc4O3)sc2c1 (stereo unspecified)	-1.4	-4	3	-0.4%	-0.2	-4
CC(=O)Nc1cccc(-c2cnc3ccccc3n2)c1	-5.3	-2	-21	-0.6%	16	0
OCCN(Cc1ccccc1)CC1CC2C=CC1C2 (stereo unspecified)	-2.1	4	5	-0.1%[38.3 µM]	0.6	4
COc1cc(N=C(N)N=C(N)N)cc(OC)c1	-1.9	0	-4	0.6%	-0.2	-1
COc1ccc(/C=N/n2c(-c3cc(C)[nH]n3)n[nH]c2=S)cc1OC	-1.5	.	-12	-0.5%	0.5	-3
Cc1nn(-c2ccccc2)c(C)c1C(=O)OCC(=O)NCc1ccco1	-2.5	9	-11	-0.9%	2.0	-1
COC(=O)c1sccc1NC(=O)COc1ccc(C)cc1	-3.9	-1	-7	1.1%	2.7	-15
CCOC(=O)CC1(CC(=O)OCC)NC(=O)c2c(C)sc(C(=O)OCC)c2N1	-1.7	-1	-11	-0.3%	2.3	10

Reformatted: 12 of the compounds above.
| SMILES | D2 ag | CtBP-E1A blk | D2 PAM | PINK1 expr mod | TRPML1 agonist | Six1-Eya2 blk |
| --- | --- | --- | --- | --- | --- | --- |
| CCc1ccc(CN(C)Cc2nc(-c3cccc(Cl)c3)no2)nc1 | -2.9 | 6 | -2 | 9.7% | 1.2 | 8 |
| Cc1ccc(C2(C)NC(=O)N(CC(=O)Nc3ccc(S(=O)(=O)Nc4nccs4)cc3)C2=O)cc1 (stereo unspecified) | 2.7 | 0 | 4 | ? | 0.1 | -12 |
| CC(=O)NC(Cc1ccc(F)cc1)C(=O)NC1CCN(c2nnnn2-c2ccccc2)CC1 (stereo unspecified) | -2.0 | 1 | -22 | 0.1% | 0.9 | 20 |
| CNC(=S)N=Nc1c(O)[nH]c2ccccc12 | -1.7 | -69* | -7 | 1.7% | 0.4 | -70* |
| CS(=O)(=O)c1ccc2nc(NC(=O)C3COc4ccccc4O3)sc2c1 (stereo unspecified) | -1.4 | -4 | 3 | -0.4% | -0.2 | -4 |
| CC(=O)Nc1cccc(-c2cnc3ccccc3n2)c1 | -5.3 | -2 | -21 | -0.6% | 16 | 0 |
| OCCN(Cc1ccccc1)CC1CC2C=CC1C2 (stereo unspecified) | -2.1 | 4 | 5 | -0.1%[38.3 µM] | 0.6 | 4 |
| COc1cc(N=C(N)N=C(N)N)cc(OC)c1 | -1.9 | 0 | -4 | 0.6% | -0.2 | -1 |
| COc1ccc(/C=N/n2c(-c3cc(C)[nH]n3)n[nH]c2=S)cc1OC | -1.5 | . | -12 | -0.5% | 0.5 | -3 |
| Cc1nn(-c2ccccc2)c(C)c1C(=O)OCC(=O)NCc1ccco1 | -2.5 | 9 | -11 | -0.9% | 2.0 | -1 |
| COC(=O)c1sccc1NC(=O)COc1ccc(C)cc1 | -3.9 | -1 | -7 | 1.1% | 2.7 | -15 |
| CCOC(=O)CC1(CC(=O)OCC)NC(=O)c2c(C)sc(C(=O)OCC)c2N1 | -1.7 | -1 | -11 | -0.3% | 2.3 | 10 |
